NPYLR7 ag: agonists of mosquito NPYLR7 receptor, primary screen, cell-based, Aedes aegypti, calcium fluorescence, mosquito biting behavior | Aedes aegypti neuropeptide Y-like receptor 7 (NPYLR7) | HEK293T NPYLR7/Galpha15, GCaMP6s calcium fluorescence | activation, % at 10 µM | hit rate 0.15% among 270,000 | AID 1259423, 2018; in the data active = activation above about 40%;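 note: 0% = vehicle and 100% = reference agonist at the receptor; some compounds past the cut are filed as inactive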
NPYLR7 ag max-min: also measured in NPYLR7 ag; calls as there; activation, %; measured here: Max-Min RFU normalised activation; some inactives read as strong as hits;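 span of the calcium signal over five minutes; 0% = vehicle and 100% = native peptide agonist; compound fluorescence can raise it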
An asterisk follows results filed as active; & = joins results of further samples.

SMILES | NPYLR7 ag | NPYLR7 ag max-min
O=C(Oc1ccc(-c2nc(-c3ccc(Br)cc3)no2)cc1)c1ccccc1 | -6 | -11
O=C(NC(c1ccccc1)c1ccc2ccccc2n1)C1CCN(C(=O)Cc2cccs2)CC1 (stereo unspecified) | -10 | -18
C[C@@H](Nc1nccn2ccnc12)c1ccccc1 | 1 | -1
COCCOc1ccc(-c2nnc(CCC(=O)NC(C)C)c(=O)[nH]2)cc1 | 6 | 1
COC(=O)[C@@H]1C[C@H](NC(=O)c2nc(C(C)C)cs2)CN1C | -4 | -5
CC(C)(C)c1cc(NC(=O)C2(C)CCN2C(=O)C2(c3ccccc3)CCCC2)no1 (stereo unspecified) | 9 | 13
COc1ccc(OC)c(CN(Cc2cccc(C(F)(F)F)c2)Cc2nc(C(=O)NCC3CCCO3)co2)c1 (stereo unspecified) | 16 | 11
CCc1nc(N(CCCN2CCOCC2)CCC(=O)NCc2cccc(C(F)(F)F)c2)c2ccc(Cl)cc2n1 | 0 | 11
CC(C)CN(CC(C)C)C(=O)c1ccc(CSc2ccc3ccccc3n2)cc1 | -1 | -5
Cc1ccc(-c2nc3scc(CCNS(=O)(=O)c4ccc(-c5ccccc5)cc4)n3n2)cc1 | -4 | -2
CCOc1cc(C=CC(=O)c2ccc3c(c2)OCCO3)cc(Br)c1OCC | 3 | 0
Cc1ccc(S(=O)(=O)N(NC2=NS(=O)(=O)c3ccccc32)C(=O)c2ccccc2)cc1 | 8 | 3
CCN(Cc1nc(COC)no1)C(=O)CC1=CCCCC1 | 17 | 2
OC[C@@H](Nc1nccc(CCC(F)(F)F)n1)c1ccccc1 | 25 | 7
Cc1ccc(NC(=O)CSc2nc(Cl)cc(N3CCN(C(c4ccccc4)c4ccccc4)CC3)n2)cc1 | 21 | 23

Compound profiles (already shown).
Listed for CCN(Cc1nc(COC)no1)C(=O)CC1=CCCCC1 → NPYLR7 ag = 17; NPYLR7 ag max-min = 2
Listed for CC(C)(C)c1cc(NC(=O)C2(C)CCN2C(=O)C2(c3ccccc3)CCCC2)no1 (stereo unspecified) → NPYLR7 ag = 9; NPYLR7 ag max-min = 13
Listed for O=C(Oc1ccc(-c2nc(-c3ccc(Br)cc3)no2)cc1)c1ccccc1 → NPYLR7 ag = -6; NPYLR7 ag max-min = -11

The main list resumes with the 4 entries that preceded the break.
SMILES | NPYLR7 ag | NPYLR7 ag max-min
Cc1ccc(S(=O)(=O)N(NC2=NS(=O)(=O)c3ccccc32)C(=O)c2ccccc2)cc1 | 8 | 3
CCN(Cc1nc(COC)no1)C(=O)CC1=CCCCC1 | 17 | 2
OC[C@@H](Nc1nccc(CCC(F)(F)F)n1)c1ccccc1 | 25 | 7
Cc1ccc(NC(=O)CSc2nc(Cl)cc(N3CCN(C(c4ccccc4)c4ccccc4)CC3)n2)cc1 | 21 | 23
CCCNC(=O)c1nn(-c2ccc(S(C)(=O)=O)cc2)c(=O)n(Cc2cccc(C)c2)c1=O | 1 | 6
c1ccn(-c2ccc(-c3noc(-c4cnccn4)n3)cc2)c1 | -3 | -2
CC(C)Cn1c(N2CCN(Cc3c(Cl)cccc3Cl)CC2)nc2c1c(=O)[nH]c(=O)n2C | 4 | 0
COCCN(CC(=O)N(CCc1ccccc1)Cc1ccco1)C(=O)Nc1ccc(F)c(Cl)c1 | -5 | -1
COc1ccc(/C=C2\C=C(c3ccccc3)N(c3cccc(Cl)c3)C2=O)cc1Br | 0 | 4
O=C1N[C@@H](Cc2c[nH]c3ccccc23)C(=O)N[C@H]1Cc1c[nH]c2ccccc12 | 1 | 0
Cc1ccc(OCc2nc(C(=O)NCCc3ccccn3)cs2)c(C)c1 | 21 | 23
Oc1ccc(-n2ccnc2)cc1 | 6 | 7
CC(=O)Nc1cccc(-c2cccc3nc(C)ccc23)c1 | -4 | -9
CN(Cc1ccsc1)C(=O)c1ccc(NS(=O)(=O)c2ccc(F)cc2)cc1 | 6 | 3
O=C1CCCCCN1CO | -6 | -8
Cc1ccc2cccc(OCC(=O)NC(C)C(C)C)c2n1 (stereo unspecified) | 1 | 0
COc1cc(CN2CCC(CO)(Cc3ccccc3Cl)CC2)cc(OC)c1OC | -1 | -5
CSc1ccc(C2c3[nH]c4ccccc4c3CCN2C(=O)CCc2cccs2)cc1 (stereo unspecified) | 9 | -5
COc1ccc(NC(=O)CSc2nc(N)c(NC(=O)c3ccc(C(F)(F)F)cc3)c(=O)[nH]2)cc1 | 9 | 7
O=C(Nc1ccc(-c2nc3cc(Cl)ccc3o2)cc1)c1ccc([N+](=O)[O-])cc1 | -2 | -3
CCN=c1scc(-c2ccc(Br)cc2)n1N=C1CCCC1 | -5 | -7
CN(C(=O)c1sc2cc3c(cc2c1Cl)OCCO3)C1CCCCC1 | -9 | -5
Cc1nc(-n2nnc3cc(C)c(C)cc32)c2c3c(sc2n1)CCC3 | 5 | 6
N#Cc1cnn(-c2ccccc2)c1NC(=O)CCl | 8 | 5
COc1cc(CN2C(=O)C(C)ON=C2c2cccc(C)c2)cc(OC)c1 (stereo unspecified) | 5 | 5
Cc1nc2c(C)cccn2c(=O)c1NC(=O)c1ccccc1[N+](=O)[O-] | 3 | 0
COC(=O)c1ccc(COC(CN2CCN(S(=O)(=O)c3cccc(OC)c3)CC2)c2ccc(Cl)cc2)cc1 (stereo unspecified) | 0 | 10
O=C(c1ccc(F)c(Cl)c1)N1CCN(c2nc3nccc(-c4ccc5c(c4)OCO5)n3n2)CC1 | 4 | -1
O=C(c1c(O)[nH]c(=O)[nH]c1=O)C(Oc1ccccc1)c1ccccc1 (stereo unspecified) | 11 | 10
Cn1c(=O)[nH]c(=O)c2c1n1c(-c3c(F)cccc3Cl)nnc1n2C | 6 | -1
CCC(=O)N1CC(C(=O)N2CCN(C)CC2)C(c2cccc(C(F)(F)F)c2)C1 (stereo unspecified) | 29 | 22
COCc1nc(NCc2scnc2-c2ccccc2)c2cnn(C)c2n1 | -4 | -6
CC(C)CN1C(=O)c2ccccc2NC12CCN(C(=O)c1ccc(Cl)s1)CC2 | 1 | 20
CCC(C(=O)N1CCOCC1)n1c(=O)n(-c2ccc(C)c(Cl)c2)c(=O)c2ccccc21 (stereo unspecified) | 5 | 17
CSc1nnc2ccc(-c3ccc(C)cc3)nn12 | -14 | -10
CCCC1=NN(C(C)=O)C(C(=O)NCC2COC(C)(C)O2)O1 (stereo unspecified) | 2 | 2
Cc1nnc(SCc2cccc(C#N)c2)s1 | -7 | 10
CC(=O)Oc1cn(OC(C)=O)c2ccc(Br)cc12 | 4 | 2
CCOC(=O)c1c(-c2cccs2)csc1NC(=O)CN1CCc2ccccc2C1 | -4 | -5
NS(=O)(=O)c1cc(C(=O)OCC(=O)N2CCCCC2)c(Cl)cc1Cl | 3 | 4
CC(c1ccccc1)N(Cc1cccc(Cl)c1)Cc1nc(C(=O)NCc2ccc(F)cc2)co1 (stereo unspecified) | 24 | 24
COc1cccc(CN(CC2CC(c3ccc(OC)c(OC)c3)=NO2)C(=O)NC(C)C)c1 (stereo unspecified) | 24 | 30
Cn1c(=O)[nH]c(=O)c2c1nc(N1CCC(C(N)=O)CC1)n2CCCSc1nc2ccccc2s1 | -1 | -3
O=C1CC(N2CCN(CCOc3ccccc3)CC2)C(=O)N1c1ccc(Br)cc1 (stereo unspecified) | 0 | 2
COC(=O)C1=C(O)/C(=C\c2ccc3c(c2)OCO3)SC1=Nc1ccc(C(F)(F)F)cc1 | -4 | 2
COc1ccc(-n2nc(-c3cccs3)cc2C(=O)N2CC3(C)CC2CC(C)(C)C3)cc1 (stereo unspecified) | -6 | -6
COc1ccc(-n2c(=O)c3c4c(sc3n3c(SC)nnc23)CCCC4)cc1 | 3 | 2
COc1ccc(N2CCN(c3nc(SCc4ccc(C(=O)N5CCOCC5)cc4)nc(C)c3C)CC2)cc1 | 7 | 9
CCSC1CCC(NC(=O)N(C)C(C)c2ccncc2)C1 (stereo unspecified) | 9 | 6

Reformatted as labelled records: 4 of the compounds above.
SMILES: COc1ccc(NC(=O)CSc2nc(N)c(NC(=O)c3ccc(C(F)(F)F)cc3)c(=O)[nH]2)cc1
  NPYLR7 ag: 9 | NPYLR7 ag max-min: 7

SMILES: O=C(Nc1ccc(-c2nc3cc(Cl)ccc3o2)cc1)c1ccc([N+](=O)[O-])cc1
  NPYLR7 ag: -2 | NPYLR7 ag max-min: -3

SMILES: CCN=c1scc(-c2ccc(Br)cc2)n1N=C1CCCC1
  NPYLR7 ag: -5 | NPYLR7 ag max-min: -7

SMILES: CN(C(=O)c1sc2cc3c(cc2c1Cl)OCCO3)C1CCCCC1
  NPYLR7 ag: -9 | NPYLR7 ag max-min: -5

Going on with the list.
SMILES | NPYLR7 ag | NPYLR7 ag max-min
COCCN(Cc1cccs1)C(=O)C(=O)Nc1ccc(C)cc1 | 7 | -1
CC1CCc2cc(F)ccc2N1C(=O)CCCSc1ccc(NC(=O)C2CC2)nn1 (stereo unspecified) | 0 | -1
Cc1ccccc1-n1cc(CN(C)Cc2nc(-c3cnccn3)no2)cn1 | -3 | -6
CC1CCCCN1C(=O)c1cc(N2CCOCC2)nc2ccccc12 (stereo unspecified) | 13 | 9
COC[C@H]1CCCN1Cc1cccc(C(=O)Nc2ccc(F)cc2F)c1 | 4 | 2
Cn1c(O)c(N=NC(=O)COc2ccc(Cl)cc2Cl)c2ccccc21 | -3 | -10
COc1cc(OC)cc(C(=O)N(Cc2cccc(Cl)c2)Cc2nc3cc(Cl)ccc3o2)c1 | -6 | -2
Cc1cc(C)n(Cc2ccc(C(=O)N(C)C(C)c3nccs3)cc2)n1 (stereo unspecified) | 2 | -3
O=C(c1ccc(F)cc1)N1CCCC(N2CCN(c3ccccc3)CC2)C1 (stereo unspecified) | 4 | 10
C=CCCC(O)CN(Cc1ccco1)Cc1c(C)nn(-c2ccccc2)c1Oc1ccc(C)cc1 (stereo unspecified) | -2 | 4
Cc1cccn2c(CNC(C)CO)cnc12 (stereo unspecified) | 13 | 2
O=C(O)c1ccccc1C1CCN(C(=O)c2ccccc2-n2cncn2)C1 (stereo unspecified) | -1 | -5
CC(=O)c1c(C)[nH]c(C(=O)OCc2cc(-c3ccco3)on2)c1C | 1 | -1
Cc1nc(C2CCOC(C)(C)C2)cs1 (stereo unspecified) | 4 | 6
CCC(=O)C1=C(c2ccc(C)cc2)N(C(=O)CC)n2c(nnc2-c2ccccc2)S1 | 1 | -2
C=CCn1c(O)c(N=NC(=O)c2ccc(C)cc2)c2ccccc21 | 2 | -4
CC(=O)Nc1cccc(C(=O)Nc2ccc(Br)cc2Cl)c1 | -1 | -2
Cc1ccc(N2C(=O)C3CC=CC(C)C3C2=O)cc1F (stereo unspecified) | 9 | 9
CS(=O)(=O)Nc1ccc(O)cc1 | 9 | 9
COC(=O)c1cc(NC(=O)Cc2cccs2)cc(C(=O)OC)c1 | -2 | 3
COC(=O)NC1(C(F)(F)F)NC(=O)N(C2CCCCC2)C1=O (stereo unspecified) | 16 | 8
CC(C)c1cc2c(=O)[nH]c(CN3CCCC3)nc2s1 | 21 | 27
CC(=O)Nc1cccc(C(=O)N2CCCC(C(F)(F)F)C2)c1 (stereo unspecified) | -1 | -3
O=C(CC1C(=O)OCC2CCCCN21)Nc1cccc(Cl)c1 (stereo unspecified) | 7 | 4
COC(=O)c1ccccc1NC(=O)N1CCN(CC(OCc2cccc(Cl)c2)c2cccc(OC)c2)CC1 (stereo unspecified) | -3 | 9
COC(=CC(=O)O)C(O)C(OC(C)=O)C1OC1c1ccccc1 (stereo unspecified) | -8 | -17
Cc1cccc(N2CCN(S(=O)(=O)c3c[nH]c(=O)[nH]c3=O)CC2)c1C | -8 | -9
CCOC(=O)c1c(NC(=O)CN2CC3CCCC32)sc(C(=O)NC)c1C (stereo unspecified) | 0 | -1
O=C(NCC1Cc2cccc(-c3ncccn3)c2O1)c1ccc(-n2cccn2)cc1 (stereo unspecified) | 20 | 9
CCCN(CCC)Cn1c(O)c(N=NC(=O)c2ccccc2)c2ccccc21 | -1 | -5
Cc1oc2nc3c(c(=O)n(Cc4ccc(Cl)c(Cl)c4)c(=O)n3C)n2c1C | 0 | 3
CCSCCOC(=O)C1=C(C)NC(=O)NC1c1ccc(F)cc1 (stereo unspecified) | -2 | -7
N#CSc1ccc(Nc2cc(N3CCOCC3)c3nonc3c2[N+](=O)[O-])cc1 | -2 | -9
CC1CN(c2ncnc3c2cnn3CCNC(=O)C2CC(=O)N(c3ccccc3)C2)CC(C)O1 (stereo unspecified) | 1 | -1
Cc1ccccc1NC(=O)Cn1nc2c(=O)n(-c3ccc(Br)cc3)ccn2c1=O | 5 | 4
COc1cc(-c2cc(C(=O)NCc3ccc(F)c(Cl)c3)c3ccccc3n2)cc(OC)c1OC | 4 | -4
O=C(NC1CC1)C1CCN(C2CCN(Cc3cccc(-n4cccn4)c3)CC2)CC1 | 8&-3 | 8&-2
COC(=O)c1ccc2[nH]c3c(c2c1)CN(c1ccc(C#N)cn1)CC3 | 2 | 80
COc1ccc(-c2nn(-c3ccccc3F)cc2CNCc2ccccc2OC)cc1 | 14 | 4
CCC(CO)NCCNC(CC)CO (stereo unspecified) | -2 | -6
CC1(C(=O)NS(=O)(=O)c2ccc(Cl)cc2)CCN1C(=O)CCc1cccs1 (stereo unspecified) | -2 | -7
O=C(C1CC=CCC1)N1CC(=O)N(C2CCCCC2)CC(OCc2cccnc2)C1 (stereo unspecified) | 14 | -1
CC(C)Oc1nc(-c2cccc(F)c2)n(-c2cccc(NCC(O)COCc3ccccc3)c2)n1 (stereo unspecified) | -1 | 6
CCOC(=O)c1c(-c2ccc(C)o2)csc1NC(=O)CN1CC(C)OC(C)C1 (stereo unspecified) | 0 | -2
COc1ccc(-c2nc(N(CCC(=O)NC(C)c3ccccc3)Cc3ccccc3)c3ccccc3n2)cc1 (stereo unspecified) | 3 | 9

From PubChem

Some of the compounds tested; count on the stated rates, not on these rows.
